Assay outcomes as filed in PubChem BioAssay.
gsp agonist – gsp mutant agonism; gsp mutant cells, cAMP HTRF, 30 min; control for the full effect not named in the record; Potency, µM (highest dose often 76.9 µM), inactives show top-dose activation (cAMP increase), usual class: activators; 340,000 tested, 0.13% active; AID 624287; active = well fitted activation curve with a large enough effect; inconclusive = small, poorly fitted or top-dose-only effect, or another doubt; inactive = no such curve, though single readings can be large or run the other way; cell line not stated here;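 further: phosphodiesterase inhibitor Ro 20-1724 added with compounds to block cAMP breakdown; potency means the concentration at half of the fitted maximal effect; nearly all actives have a fitted effect of over 60% in size; about a fifth of the inactives were tested at one dose only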
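Cells stably selected in G418 were plated at 2000/well, grown 16-24 hr, then given compounds in DMSO with the PDE inhibitor […] (300 uM solution added) for 30 min at 37C; cAMP was read by HTRF.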
Sfp inh – blocks B. subtilis Sfp PPTase activity | Biochemical Sfp PPTase activity, qHTS | AID 1490 | Q9F4F7 | 310,000 tested, 3.5% active | Potency, µM, for the others: max response, negative = inhibition, hits mostly inhibitors; active means well fitted inhibition curve with a large enough effect; inconclusive means small, poorly fitted or top-dose-only effect, or another doubt; inactive means no such curve, though single readings can be large or run the other way;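 further: the enzyme is Sfp with the accession as filed and its product quenches rhodamine fluorescence; potency means the concentration at half of the fitted maximal effect; 0% = enzyme reaction without inhibitor and -100% = no enzyme wells; top concentration of the series not given in the record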
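Fluorescence-quenching assay with 15 nM Sfp, 5 uM rhodamine-CoA and 12.5 uM BHQ-2-labelled ybbR peptide in pH 7.6 Hepes/MgCl2 buffer. Enzyme was pre-incubated with compound for 15 min at room temperature. Rate was taken from the 30-min fluorescence change (525/598 nm).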
CtBP-E1A blk – CtBP/E1A binding inhibition | activity change, % (test concentration not listed) | AlphaScreen GST-E1A/His-CtBP binding, 1536-well; hits give low values; control for the full effect not named in the record | 340,000 tested, 0.49% active; in the data active means activity change below about -65%; inconclusive means about -30% to -65%; inactive means above about -30%; further: on the % scale 0 is the no-effect control and ±100 the full control effect; compound concentration not given in the record
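In 5 uL wells, 23 nL compound meets equimolar GST-E1A and His-CtBP (5X stock 125 nM each) for 2 h, 37 °C. Beads (5X, 50 ug/mL) then 1 h, 37 °C, dark.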
TRPV1 potentiator – human TRPV1 potentiation; TRPV1-expressing cells, Fluo-8 calcium influx, capsaicin EC20 potentiation; host cell line not named in the record; control for the full effect not named in the record; potentiation, % at 8.33 µM; 320,000 tested, 0.02% active; AID 540277; active means potentiation above 80%; inconclusive means 30% to 80%; inactive means below 30%; further: 0% is about no effect
Target sequence (Q8NER1 whole entry, looked up): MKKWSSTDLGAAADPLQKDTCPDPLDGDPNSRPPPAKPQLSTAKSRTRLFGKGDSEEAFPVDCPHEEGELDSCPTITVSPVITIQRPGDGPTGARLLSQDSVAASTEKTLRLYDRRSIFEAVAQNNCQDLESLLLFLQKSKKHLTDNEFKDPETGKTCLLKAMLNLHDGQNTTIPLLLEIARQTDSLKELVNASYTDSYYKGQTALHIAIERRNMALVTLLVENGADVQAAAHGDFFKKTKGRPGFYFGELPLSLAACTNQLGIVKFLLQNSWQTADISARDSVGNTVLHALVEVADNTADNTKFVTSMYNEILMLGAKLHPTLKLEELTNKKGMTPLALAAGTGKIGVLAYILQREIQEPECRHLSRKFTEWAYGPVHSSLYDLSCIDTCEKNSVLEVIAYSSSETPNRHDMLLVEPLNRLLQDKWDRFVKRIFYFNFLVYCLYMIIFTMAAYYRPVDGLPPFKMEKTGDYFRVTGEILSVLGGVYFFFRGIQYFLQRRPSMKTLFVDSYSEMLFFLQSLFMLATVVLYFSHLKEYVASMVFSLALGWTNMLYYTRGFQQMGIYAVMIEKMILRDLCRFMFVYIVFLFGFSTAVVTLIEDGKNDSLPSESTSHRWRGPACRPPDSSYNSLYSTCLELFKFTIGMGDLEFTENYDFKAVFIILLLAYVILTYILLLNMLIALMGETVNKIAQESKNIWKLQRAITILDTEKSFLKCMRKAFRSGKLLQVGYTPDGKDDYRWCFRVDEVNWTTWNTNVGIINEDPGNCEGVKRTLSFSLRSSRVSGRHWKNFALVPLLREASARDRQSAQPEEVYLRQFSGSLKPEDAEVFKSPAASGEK
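Cells expressing TRPV1 were dye-loaded with Fluo-8 and read kinetically: 10 s baseline, 3 min after compound (agonist portion), then 2 min after EC20 capsaicin (allosteric enhancer portion). Calcium-bound dye fluorescence at 480/520 nm.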
Menin MLL FP FL – displaces fluorescein MLL peptide from human menin; 290,000 tested, under 10 active; FP activity change, % at 61.4 µM; Fluorescence polarization, fluorescein-MLL peptide displacement from menin; inconclusive = falling polarisation curve, or a change in total fluorescence; inactive = total fluorescence flat and polarisation flat or rising; no compound was filed as active; the % refers to the polarisation; negative = inhibition;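 further: % of control where 0% means no effect; inhibitors lower the polarisation; unlabelled MLL peptide was the positive control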
gsp antagonist – antagonists of gsp mutant (McCune-Albright syndrome). Potency, µM (doses to about 76.9 µM), for the others: at the highest dose activity change, negative = inhibition, hits mostly inhibitors. 340,000 tested, 0.4% active. gsp-mutant cells, cAMP HTRF, 30 min; control for the full effect not named in the record; active = falling curve of any shape with a large fitted effect; inconclusive = falling curve, mostly with a smaller effect; inactive = flat or rising curve; cell line not stated here;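 further: intracellular cAMP measured with PDE inhibitor Ro 20-1724 present during compound exposure; potency means the concentration at half of the fitted maximal effect; on the % scale 0 is the no-effect control and ±100 the full control effect; nearly all actives have a fitted effect of over 65% in size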
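Cells in G418 medium, seeded 16-24 h, 37C; buffer exchange to DPBS + 1 mM CaCl2, 0.5 mM MgCl2, 0.05% BSA; cpds in DMSO + […] (300 uM stock), 30 min 37C; HTRF cAMP detection.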
ClpP mod – qHTS Assay for Activators of ClpP. purified B. subtilis ClpP, FRET peptide cleavage, 20 min. 340,000 tested, 1.9% active. AID 651965, 2013. Potency, µM (top dose mostly 57.5 µM), for the others: at the top dose activity change, negative = active; active = well fitted falling curve with a large enough effect; inconclusive = small, poorly fitted or top-dose-only effect; inactive = no such curve, though single readings can be large or run the other way; further: potency means the concentration at half of the fitted maximal effect; the source files actives as falling curves though it sought activators and does not explain the sign; nearly all actives have a fitted effect of over 65% in size; many hits overshoot -100%
Target sequence (P80244 whole entry, looked up): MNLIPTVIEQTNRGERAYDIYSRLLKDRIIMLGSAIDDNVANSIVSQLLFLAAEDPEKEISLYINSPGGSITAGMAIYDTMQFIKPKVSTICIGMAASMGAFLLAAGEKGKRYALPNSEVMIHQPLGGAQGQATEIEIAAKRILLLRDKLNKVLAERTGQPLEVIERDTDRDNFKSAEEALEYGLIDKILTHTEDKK
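Purified B. subtilis ClpP, 10 microg/mL final in Tris/HCl pH8 with KCl, BSA, glycerol and Tween-20, cleaved an Abz/nitrotyrosine-quenched decapeptide. Fluorescence (ex 320, em 430) was read at 0 and 20 min at room temperature. Delta was normalized to 5.8 microM ADEP and DMSO/no-enzyme controls.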
* hit, by the source's call; ? = inconclusive; / = not tested or not shown; & = joins results of further samples; [ ] = remark or other dose.

SMILES	gsp agonist	Sfp inh	CtBP-E1A blk	TRPV1 potentiator	Menin MLL FP FL	gsp antagonist	ClpP mod
CC(NCC1(N2CCOCC2)CCCCC1)C(=O)N1CCc2ccccc21 (centres undefined)	9%	-1%	6	4	5.5	4%	-1.2%
COc1ccc(-c2nnc3ccc(SCC(=O)N4CCCCCC4)nn23)cc1OC	7%	17%	-24	-4	0.6	-2%	-0.7%
CC(=O)C1C(c2ccco2)c2c(noc2C)CC1(C)O (centres undefined)	-8%	19%	1	13	10	3%	2.1%
CCO/C(C)=C1\C(=O)N(CC)c2ccccc21	-31%[inhibitor]	4%	-1	0	-2.0	-2%	-1.8%
Cc1ccc(-c2noc(C3CCCCC3)n2)cc1	-17%	11%	14	14	4.6	-8%	-0.1%
CC(Sc1nnc(-c2cccs2)n1N)C(=O)NCC1CCCO1 (centres undefined)	6%[15.4 µM]	/	-2	8	/	-7%	/
COc1ccc(C2=NOC(COc3ccc([N+](=O)[O-])cc3)C2)cc1 (centres undefined)	-1%	18%	0	-7	-1.0	-4%	-3.4%
COc1ccc(-c2[nH]c(-c3ccc(C)cc3)nc2SCC(=O)NCc2ccco2)cc1OC	15%	5%	-3	?	3.3	5%	-4.3%
CC(C)c1ccc(NC(=O)NC2CC3CCC(C2)N3Cc2cccs2)cc1 (centres undefined)	-26%	13%	-6	-5	-6.1	1%	0.1%
CCCCc1ccc(-c2csc(/C(C#N)=C/c3ccco3)n2)cc1	-3%	-1%	32	9	16	-2%	-0.9%
COc1ccccc1N1CCN(C(=O)CCCN2C(=O)c3cccc4cccc(c34)C2=O)CC1	-5%	-7%	?	-11	6.8	-4%	-20%
O=C(c1ccccc1-c1ncc[nH]1)N1CCCC(Nc2ccc(F)cc2)C1 (centres undefined)	-16%[15.4 µM]	9%	23	26	/	0%	0.6%
O=C(Nc1cccc(S(=O)(=O)NC2=NCCC2)c1)c1cc(-c2ccccn2)nc2ccccc12	29%	17%	-17	1	-1.2	-5%	-2.4%
Cc1cc(OC(C)C(=O)NCc2cccnc2)c2c(C)c(C)c(=O)oc2c1 (centres undefined)	?	10%	8	-3	-1.6	-6%	3.6%
O=c1[nH]c(C2CCN(S(=O)(=O)c3cccc([N+](=O)[O-])c3)CC2)nc2c1nnn2Cc1ccccc1	1%	-4%	-10	3	/	-3%	/
CN(Cc1cccc(Cl)c1Cl)C(=O)c1cccc(S(=O)(=O)N2CCN(Cc3ccccc3)CC2)c1	-4%	15%	3	-7	2.6	-12%	1.5%
CC(=O)c1ccc(S(=O)(=O)NCCOc2ccccc2)cc1	-23%	/	4	/	/	/	1.2%
COc1ccc(NC(=S)NC(=O)/C=C/c2ccco2)c(OC)c1	-6%	-15%	-23	-19	0.1	?	/
CCCCn1c(CCC(=O)O)nc2cc(S(=O)(=O)N(CC)CC)ccc21	6%[15.4 µM]	10%	0	7	0.7	-7%	/
COc1ccc(OC)c(N=Cc2c(O)c3ccccc3oc2=O)c1	-21%	7%	/	-38	?	-7%	-2.0%
COc1ccccc1CNC(=O)COc1ccccc1C(=O)c1cnn(-c2ccccc2)c1	-9%	/	-7	-6	/	?	-2.1%
CCOC(=O)C1CCN(S(=O)(=O)c2ccc(OCC(=O)OC)cc2)CC1	-39%	12%	4	2	2.4	-11%	0.0%
O=C(N/N=C/c1cc([N+](=O)[O-])ccc1O)/C(=C\c1cccs1)NC(=O)c1ccccc1	15%[15.4 µM]	21%	-94*	3	24	?	/
CC(C)CC(c1nnnn1C(C)C)N1CCN(c2cccc(Cl)c2)CC1 (centres undefined)	-24%	?	-8	13	-0.1	-12%	0.8%
CCC(CC)C(=O)Nc1cc(C(=O)OC)ccc1C(=O)OC	-37%[inhibitor]	2%	3	-27	4.8	-2%	-24%
CCN1C(=O)[C@H]2[C@@H](c3ccc(-c4ccc(Cl)c(Cl)c4)cc3)N[C@@](C)(C(=O)OC)[C@H]2C1=O	/	/	-3	-31	/	1%	?
CCn1cc(CN(C)C(=O)CSc2nc(-c3ccco3)cc(C(F)(F)F)n2)c(C)n1	0%	/	-1	/	/	-22%	-6.3%
O=C(C1COc2ccccc2O1)N1CCc2ccccc2C1 (centres undefined)	8%	-5%	0	26	1.6	1%	1.5%
COc1ccc(C2c3ccc(O)cc3Oc3ncn(CCN4CCOCC4)c(=N)c32)cc1OC (centres undefined)	2%[15.4 µM]	6%	4	-4	?	-6%	/
COCCn1c(-c2ccc(Cl)cc2)nc2oc3cc(OC)ccc3c(=O)c2c1=O	-2%	21%	/	2	1.0	-17%	-2.5%

Arranged by molecular weight (falling): part of the list above
SMILES	gsp agonist	Sfp inh	CtBP-E1A blk	TRPV1 potentiator	Menin MLL FP FL	gsp antagonist	ClpP mod
CCn1cc(CN(C)C(=O)CSc2nc(-c3ccco3)cc(C(F)(F)F)n2)c(C)n1	0%	/	-1	/	/	-22%	-6.3%
CCCCn1c(CCC(=O)O)nc2cc(S(=O)(=O)N(CC)CC)ccc21	6%[15.4 µM]	10%	0	7	0.7	-7%	/
CC(C)CC(c1nnnn1C(C)C)N1CCN(c2cccc(Cl)c2)CC1 (centres undefined)	-24%	?	-8	13	-0.1	-12%	0.8%

Other entries:
SMILES	gsp agonist	Sfp inh	CtBP-E1A blk	TRPV1 potentiator	Menin MLL FP FL	gsp antagonist	ClpP mod
Cc1ccc(N2CC(O)Cn3c2nc2c3c(=O)[nH]c(=O)n2C)cc1 (centres undefined)	-12%	5%	0	8	-6.0	3%	/
COc1ccc(CCNC(=O)CSCc2ccc(C)cc2)cc1OC	4%	/	3	/	/	13%	1.1%
Cc1cccc(C(=O)NCC(=O)OCc2nnc(-c3ccccc3)o2)c1	10%	/	-2	10	/	-8%	0.6%
CC1(C)Cc2ccccc2-c2nc(CN3CCOCC3)[nH]c(=O)c21	-34%[inhibitor]	25%	-1	-4	-1.1	5%	-4.3%
CCOC(=O)C1=C(C)N=c2s/c(=C/c3ccco3)c(=O)n2C1c1cccc(OC)c1 (centres undefined)	23%	40µM*	-13	15	?	-13%	1.3%
O=C(NCc1ccc2c(c1)OCO2)c1ccc(Br)cc1	6%	5%	/	-9	-0.7	2%	-0.4%
CCN(CC)C(=O)CSC1=Nc2ccccc2C2=NC(c3ccccc3)C(=O)N12 (centres undefined)	?	6%	-2	1	1.6	-16%	16µM*
CCc1ccc(C(=O)C(C)OC(=O)CN2C(=O)NC3(CCCC3)C2=O)cc1 (centres undefined)	-36%[15.4 µM]	/	-2	/	/	-4%	/
COc1ccccc1NC(=S)NC12CN3CN(CN(C3)C1)C2	-6%[15.4 µM]	-4%	/	-9	-11	12%	/
O=C(O)c1ccc(NC(=O)C2(c3ccccc3)CCOCC2)cc1	-3%	16%	-4	-1	0.8	2%	-2.3%
CCOC(=O)C1CCCN(c2nc3c(C)cccn3c(=O)c2/C=C(\C#N)C(=O)NCc2ccco2)C1 (centres undefined)	32%	-25%	/	/	9.6	-22%	-19%
CCn1c(Cc2cccc3ccccc23)nnc1SCC(=O)Nc1nccs1	-10%	13%	-10	8	5.4	-14%	0.9%
O=C(Nc1cccc(-n2cnnn2)c1)c1ccncc1	?	8%	/	4	0.8	2%	-3.3%
COc1ccc(C2SCC(=O)N2C)cc1 (centres undefined)	2%	5%	2	-7	2.0	2%	-2.6%
Cc1cccc(C)c1N1CCc2cn[nH]c21	-10%	11%	0	-10	0.2	-4%	1.2%
CCOC(=O)Nc1ccc(S(=O)(=O)NCCCN2CCOCC2)cc1	-52%[inhibitor]	22%	-19	-3	0.4	6%	-2.3%
CC1=C(C(=O)OCC(C)C)C(c2ccsc2)NC(=O)N1 (centres undefined)	-45%[inhibitor]	0%	1	4	1.1	?	-0.6%
COC(=O)C[C@H]1c2cc(F)cc(F)c2S(=O)(=O)N1C1CCN(Cc2ccccc2)CC1	/	/	-1	/	/	-1%	-0.3%&-1.9%
CSc1ccccc1OCc1cc(C(=O)NCC(C)Oc2cccnc2)no1 (centres undefined)	-11%	/	-8	/	/	/	0.0%
N/C(=N\OC(=O)c1ccc2ccccc2c1)c1ccccn1	-29%	8%	0	-31	2.3	-4%	/
CCN(CC(=O)N1CCOCC1)S(=O)(=O)c1ccccc1	0%[15.4 µM]	11%	-12	-4	0.7	-10%	/
Cc1cccc(/C=N/NC(=O)c2cc(Br)ccc2O)n1	-21%[15.4 µM]	8%	-18	?	-7.0	-18%	1.4%
O=C(O)c1cccc(-n2c(O)c(C=C3N=c4ccccc4=N3)sc2=S)c1	-8%	4%	2	-5	12	-13%	-0.1%
COC(=O)c1ccc(C2/C(=C(/O)c3ccc(Cl)cc3)C(=O)C(=O)N2C2CCS(=O)(=O)C2)cc1 (centres undefined)	6%	1%	12	6	-3.0	18%	0.3%
NN1C(=O)/C(=C2/Sc3ccccc3N2CCCS(=O)(=O)O)SC1=S	?	-16%	/	8	?	10%	1.8%
CNc1ccccc1NC(=O)CCn1c(=S)oc2ccccc21	-4%	8%	4	9	1.4	2%	1.2%
CCOC(=O)N1CCN(C(=O)CCNS(=O)(=O)c2ccc(C)c(C)c2)CC1	-19%	/	7	-4	/	-5%	-1.1%
CN(Cc1ccco1)C(=O)CCc1nc2sc3c(c2c(=O)[nH]1)CCCC3	1%	-16%	-12	6	5.9	-7%	-14%
COCc1nnc(NC(=O)CCCOc2ccccc2)s1	-22%	10%	4	14	1.9	0%	-0.7%
COc1cc(COCC(O)CN2CCN(Cc3ccc4c(c3)OCO4)CC2)cc(OC)c1OC (centres undefined)	-1%[15.4 µM]	9%	-1	-9	-4.1	12%	/
Cc1ccc2c(Cl)c(C(=O)NCCCn3ccnc3)sc2c1	-6%	7%	-11	-9	3.2	6%	-4.0%
Cc1ccc(-c2c3c(nc4sc(C(N)=O)c(N)c24)CCC3)cc1	?	-20%	-16	0	4.0	3%	-7.9%
Cc1c2ccccc2cc(Cc2ccccc2)[n+]1C	-3%	-8%	/	0	0.9	5%	4.5%
C=CCN1CC(=O)N2Cc3[nH]c4ccccc4c3C[C@H]2C1=O	-2%	4%	/	0	-2.3	-2%	-1.8%
CC/C(=N/O)c1cnnc(SC)n1	4%	1%	-9	?	-2.5	4%	-2.6%
C/C(=N\NC(=O)c1ccc(Cn2cc(Br)cn2)o1)c1ccc(NC(=O)c2ccoc2C)cc1	17%[15.4 µM]	1%	-6	-1	0.5	-12%	-9.3%
